# Screens (PubChem BioAssay)
# Marburg entry inh – blocks Marburg virus binding to or entry into cells | Marburg virus pseudotyped entry inhibition, cell reporter; control for the full effect not named in the record; about a third of the inactives were read at about 46 µM | actives 1.8% (n = 300,000) | AID 540276 | Potency, µM (top dose mostly 37.8 µM), inactives show at the highest dose activity change, negative = inhibition, actives largely listed as inhibitors; active = well fitted inhibition curve with a large enough effect; inconclusive = small, poorly fitted or top-dose-only effect, or effect the other way; inactive = flat fitted curve, though single readings scatter; tested in HEK293 cells; about a fifth of its hits are not listed in these tables; further: on the % scale 0 is the no-effect control and ±100 the full control effect; luciferase read-out
# Cruzain inh noDet – blocks cruzain activity in detergent-free assay; P25779; purified cruzain, Z-FR-AMC fluorescence, no detergent; Potency, µM, for the others: max response, negative = inhibition, most hits filed as inhibitors; actives 2.3% (n = 200,000); active means well fitted curve in the direction sought with a large enough effect; inconclusive means small, poorly fitted or top-dose-only effect, or another doubt; inactive means no such curve, though single readings can be large; an effect the other way counts as inactive or inconclusive;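 further: plate controls were enzyme without inhibitor for no effect and buffer without enzyme for full effect; nearly all actives have a fitted effect of over 40% in size; top concentration of the series not given in the record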
# Target sequence (P25779 123-467 limits assumed): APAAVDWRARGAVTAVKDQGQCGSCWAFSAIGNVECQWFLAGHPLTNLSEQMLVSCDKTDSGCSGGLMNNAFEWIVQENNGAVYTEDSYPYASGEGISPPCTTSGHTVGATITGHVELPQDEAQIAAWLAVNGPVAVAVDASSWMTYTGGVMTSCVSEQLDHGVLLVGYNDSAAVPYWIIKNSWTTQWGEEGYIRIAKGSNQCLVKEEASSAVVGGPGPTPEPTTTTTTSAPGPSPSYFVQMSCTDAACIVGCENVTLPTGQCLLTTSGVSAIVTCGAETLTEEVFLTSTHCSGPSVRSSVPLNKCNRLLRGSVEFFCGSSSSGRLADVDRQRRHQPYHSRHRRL
#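 Purified cruzain at 1.5 nM, pre-incubated 15 min with compound at room temperature in 100 mM sodium acetate pH 5.5, 5 mM DTT, 0.00005% Triton X-100. Reaction started with 2 uM Z-FR-AMC; AMC fluorescence increase over 60 s gives rate.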
# LASV entry inh – Lassa virus entry inhibition. Lassa virus pseudotype entry inhibition, cell reporter; control for the full effect not named in the record. Potency, µM (series often up to 37.9 µM), inactives show at the top dose activity change, negative = inhibition, most hits filed as inhibitors. actives 1.2% (n = 300,000); active means well fitted inhibition curve with a large enough effect; inconclusive means small, poorly fitted or top-dose-only effect, or effect the other way; inactive means flat fitted curve, though single readings scatter; tested in HEK293 cells; further: on the % scale 0 is the no-effect control and ±100 the full control effect; nearly all actives have a fitted effect of over 50% in size; luciferase read-out
# Cruzain Triton – cruzain (T. cruzi) inhibition with detergent. P25779. purified cruzain, Z-FR-AMC fluorescence, 0.01% Triton. Potency, µM, for inactives: max response, negative = inhibition, actives largely listed as inhibitors. actives 0.43% (n = 200,000). AID 1478; active means well fitted curve in the direction sought with a large enough effect; inconclusive means small, poorly fitted or top-dose-only effect, or another doubt; inactive means no such curve, though single readings can be large; an effect the other way counts as inactive or inconclusive;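 further: plate controls were neutral wells for no effect and buffer without enzyme for full effect; nearly all actives have a fitted effect of over 40% in size; top concentration of the series not given in the record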
#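 Z-FR-AMC hydrolysis (2 uM substrate) by cruzain (1.5 nM) monitored kinetically at ex 360/em 450 nm after 15 min room-temperature compound exposure; 0.01% Triton X-100, pH 5.5, 5 mM DTT.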
# StopGo reporter – lowers the luciferase signal of an FMDV 2A StopGo reporter | human cells with a luciferase reporter of 2A StopGo recoding; control for the full effect not named in the record | AID 1159524 | actives 1.2% (n = 410,000) | Potency, µM (doses to about 57.9 µM), without a hit: at the top dose signal change, negative = less light; active = well fitted falling curve with a large enough effect; inconclusive = small, poorly fitted or top-dose-only effect; inactive = no such curve, though single readings can be large or run the other way; tested in HEK293T cells; further: on the % scale 0 is the no-effect control and ±100 the full control effect; nearly all actives have a fitted effect of over 45% in size; luciferase light after 4 h
# SARS PLP yeast – blocks SARS-CoV papain-like protease in a yeast assay; S. cerevisiae expressing SARS-CoV PLpro, growth rescue; control for the full effect not named in the record; AID 485353; actives 0.19% (n = 330,000); Potency, µM (highest dose often 32.9 µM), for the others: at the top dose activity, positive = growth rescue; further: 0% is about no effect; nearly all actives have a fitted effect of over 55% in size; growth read by luminescence after 48 h
# NS1 function inh – inhibitors of influenza NS1 protein function; S. cerevisiae slowed by influenza A NS1, growth recovery by OD600; Potency, µM (titrated, usually from 46.1 µM), without a hit: top-dose activity, positive = more growth; actives 0.4% (n = 270,000); further: actives are rising curves; nearly all actives have a fitted effect of over 50% in size
#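 OD600 was taken as the measure of yeast growth restored by compound in an NS1-expressing S. cerevisiae strain. Cells had been washed out of glucose medium and diluted 1:100 into galactose -URA medium, pH 6.0.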
# RE007 growth inh – less growth of the S. pombe RE007 Vpr strain; S. pombe RE007 Vpr strain, BacTiter-Glo ATP luminescence, 24 h; control for the full effect not named in the record; Potency, µM (top dose mostly 92.2 µM), for the others: at the top dose activity change, negative = less growth; actives 0.21% (n = 360,000); active = well fitted falling curve with a large enough effect; inconclusive = small, poorly fitted or top-dose-only effect; inactive = no such curve, though single readings can be large or run the other way;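 further: on the % scale 0 is the no-effect control and ±100 the full control effect; nearly all actives have a fitted effect of over 50% in size; the assay follows cell death caused by Vpr and the record does not say whether a fall means rescue or toxicity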
#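 Fission yeast strain RE007, carrying one chromosomally integrated HIV-1 vpr copy, was seeded at OD 0.01 in PMG+AL medium with 23 nL pinned compound. After 24 h at 30 °C and 99% humidity, viability was read by BacTiter-Glo luminescence.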
# An asterisk follows results filed as active; ? = inconclusive; nt = no result given; & = joins results of further samples; [ ] = another dose, or the depositor's remark. Unless noted, the call rests on the fitted dose curve; in most records, active means well fitted rising curve with a large enough effect; inconclusive means small, poorly fitted or top-dose-only effect; inactive means no such curve, though single readings can be large or run the other way. Potency means the concentration at half of the fitted maximal effect. The order is random; any-hit rate near 4.7%.
SMILES,Marburg entry inh,Cruzain inh noDet,LASV entry inh,Cruzain Triton,StopGo reporter,SARS PLP yeast,NS1 function inh,RE007 growth inh
NC(=O)c1nsc(C(=O)N(CC(=O)NCc2ccccc2)c2ccc(F)cc2)c1N,2%[46.1 µM],nt,-24%[46.1 µM],nt,17%,-8%,-4%,6%
COc1ccc2nc(SCC(=O)/C(C#N)=C(\C)N)[nH]c2c1,?,4%,?,-5.9%,-7%,-16%,10%,-14%
COc1ccc2oc(=O)c(C(=O)NCc3ccccn3)cc2c1,5%,-19%,18%,-6.8%,27%,7%,-3%,?
Cc1ccc(C)c(N(CC(=O)NCCSCc2ccco2)S(C)(=O)=O)c1,-1%,?,-13%,-1.3%,18%,-8%,?,5%
CN(C)CCOC(c1ccc(Cl)cc1)c1ccccn1 (stereo not drawn),nt,-9%,nt,0.4%,-14%&-5%&-21%,-3%,0%,6%[18.4 µM]
CS(=O)(=O)N(CC(=O)NCC1CCCO1)Cc1ccc(Cl)cc1 (stereo not drawn),?,-9%,-2%,5.7%,-18%,-5%,-28%,-1%
C=CCNC(=O)Nc1ccc2nc(C)sc2c1,8%[46.1 µM],nt,?,nt,13%,0%,-36%,7%
CCCCn1ccnc1C(=O)c1ccc(S(=O)(=O)N2CCCC2)cc1,nt,nt,nt,nt,13%,-1%,-5%,-15%
Cn1cc(S(=O)(=O)N2CCCC(C(=O)O)C2)cn1 (stereo not drawn),5%[46.1 µM],nt,-1%,nt,-2%,-3%,nt,7%
O=c1[nH]c2ccc(NC(=S)Nc3ccc(F)cc3)cc2[nH]1,-1%[46.1 µM],nt,0%[46.1 µM],nt,1%,0%,1%,7%
O=C1/C(=C\c2cc([N+](=O)[O-])ccc2O)SC(=S)N1Cc1ccc(Cl)cc1,nt,nt,nt,nt,?,-8%,-52%,40µM*
COc1ccc(C)cc1-n1cnc2cc(C(=O)NC3CCCCCC3)ccc21,nt,-5%,-13%[46.1 µM],-10%,0%,nt,nt,nt
CC(=O)Nc1ccc(NC(=O)c2cc(S(=O)(=O)N3CCCCC3)ccc2N2CCOCC2)cc1,3%,nt,-5%,nt,-4%,nt,nt,-7%
COCC(=O)Nc1cc(Cl)ccc1C,16%[46.1 µM],nt,16%,nt,-18%,-2%,nt,-1%
O=C(COC(=O)c1cc(S(=O)(=O)NCc2ccccc2)ccc1O)c1cc2ccccc2o1,nt,nt,nt,nt,14%,0%,0%,13%
CCc1ccccc1Nc1nn2c(=O)c3ccc(C(=O)NCCc4ccccc4)cc3nc2s1,nt,9%,?,-3.5%,?,nt,nt,nt
Cn1c(=O)cc(SCC(=O)NCCC2=CCCCC2)c2cc(Cl)ccc21,2%,?,-1%,-9.8%,-22%,-9%,6%,16%
CC(NCc1ccc2c(c1)OCO2)c1ccccc1 (stereo not drawn),?,nt,-18%[46.1 µM],nt,-11%,3%,8%,-2%
CCCCN(C)CCCNC(=O)CC1Oc2ccccc2NC1=O (stereo not drawn),-25%,1%,10%,-1.8%,-12%,-16%,7%,-6%
CC(C)[C@H](NC(=O)c1ccco1)C(=O)OCC(=O)N1CC(=O)Nc2ccccc21,2%[46.1 µM],nt,24%[46.1 µM],nt,31%[activator],-5%,nt,10%
Cc1cc(Cl)c(S(=O)(=O)NCc2cccnc2)cc1OCC(N)=O,0%[46.1 µM],-3%,8%,1.7%,11%,3%,0%,-2%
COC(=O)Cc1ccc(NC(=S)N2CCN(c3cccc(O)c3)CC2)cc1,-27%,-3%,-12%,-0.7%,?,2%,?,-19%
O=c1cc(/N=C/c2coc3cc(Br)ccc3c2=O)[nH]c(=S)[nH]1,7%,nt,1%,nt,-8%,0%,-2%,9%
COc1ccc(CN(C(=O)CN2C(=O)C(C)Oc3ccccc32)C2CCCC2)c(OC)c1 (stereo not drawn),?,21%,?,-3.6%,-24%,-15%,-31%,1%
COC(=O)Nc1nnc(/C=C/c2ccccc2)s1,?,?,8%,0.5%,24%,-15%,8%,-10%

# A run of entries from further up, as a working copy:
SMILES,Marburg entry inh,Cruzain inh noDet,LASV entry inh,Cruzain Triton,StopGo reporter,SARS PLP yeast,NS1 function inh,RE007 growth inh
NC(=O)c1nsc(C(=O)N(CC(=O)NCc2ccccc2)c2ccc(F)cc2)c1N,2%[46.1 µM],nt,-24%[46.1 µM],nt,17%,-8%,-4%,6%
COc1ccc2nc(SCC(=O)/C(C#N)=C(\C)N)[nH]c2c1,?,4%,?,-5.9%,-7%,-16%,10%,-14%
COc1ccc2oc(=O)c(C(=O)NCc3ccccn3)cc2c1,5%,-19%,18%,-6.8%,27%,7%,-3%,?
Cc1ccc(C)c(N(CC(=O)NCCSCc2ccco2)S(C)(=O)=O)c1,-1%,?,-13%,-1.3%,18%,-8%,?,5%
CN(C)CCOC(c1ccc(Cl)cc1)c1ccccn1 (stereo not drawn),nt,-9%,nt,0.4%,-14%&-5%&-21%,-3%,0%,6%[18.4 µM]
CS(=O)(=O)N(CC(=O)NCC1CCCO1)Cc1ccc(Cl)cc1 (stereo not drawn),?,-9%,-2%,5.7%,-18%,-5%,-28%,-1%
C=CCNC(=O)Nc1ccc2nc(C)sc2c1,8%[46.1 µM],nt,?,nt,13%,0%,-36%,7%
CCCCn1ccnc1C(=O)c1ccc(S(=O)(=O)N2CCCC2)cc1,nt,nt,nt,nt,13%,-1%,-5%,-15%
Cn1cc(S(=O)(=O)N2CCCC(C(=O)O)C2)cn1 (stereo not drawn),5%[46.1 µM],nt,-1%,nt,-2%,-3%,nt,7%
O=c1[nH]c2ccc(NC(=S)Nc3ccc(F)cc3)cc2[nH]1,-1%[46.1 µM],nt,0%[46.1 µM],nt,1%,0%,1%,7%
O=C1/C(=C\c2cc([N+](=O)[O-])ccc2O)SC(=S)N1Cc1ccc(Cl)cc1,nt,nt,nt,nt,?,-8%,-52%,40µM*

# (further entries)
SMILES,Marburg entry inh,Cruzain inh noDet,LASV entry inh,Cruzain Triton,StopGo reporter,SARS PLP yeast,NS1 function inh,RE007 growth inh
O=C(COc1ccccc1)N1CCc2ccccc2C1,16%,3%,?,-16%,41%[activator],-7%,-2%,-11%
O=C(CSc1nc2cc(Cl)ccc2s1)NC1CCCc2ccccc21 (stereo not drawn),?,-17%,7%,-9.3%,9%,-6%,-13%,22%
Nc1nc(N2CCN(C(=O)c3ccco3)CC2)nc2ccccc12,16%,-22%,26%,-4.5%,21%,-13%,5%,-8%
CCOc1ccccc1NC(=O)Cc1noc2ccc(C)cc12,nt,-5%,-12%[46.1 µM],-11%,-10%,nt,nt,nt
O=C(O)CCn1c(=O)[nH]c2ccccc2c1=O,nt,-1%,nt,-0.5%,-5%,-12%,-2%,3%
CCN(CC)S(=O)(=O)c1ccc(/C=C/C(=O)Nc2ccc(F)cc2F)cc1,5%,-1%,nt,-6.9%,?,18%,-8%,-4%
COc1ccc(CN2CCN(Cc3ccccc3OC)CC2)cc1,nt,nt,nt,nt,-23%,-2%,-2%,-28%
CC(C(=O)N1CCN=C1c1ccccc1)N1C(=O)c2ccccc2C1=O (stereo not drawn),nt,nt,nt,nt,-7%,0%,5%,-2%
CC(C)C(=O)NC(NC(=S)Nc1ccc(S(N)(=O)=O)cc1)C(Cl)(Cl)Cl (stereo not drawn),?,8%,3%,0.8%,-13%,15%,20%,-24%
O=C(O)[C@H]1CCCC[C@H]1C(=O)Nc1cc([N+](=O)[O-])ccc1F,15%,-12%,9%,-2.0%,-6%,-4%,16%,-10%
O=C(N=C1SC2CS(=O)(=O)CC2N1Cc1ccc(F)cc1)C1CCCO1 (stereo not drawn),nt,nt,nt,nt,-4%,-1%,12%,-9%
CCOc1nc(-c2ccccc2)ccc1-c1noc(-c2ccc(OC)c(OC)c2)n1,3%,nt,nt,nt,-16%,nt,-15%,-2%
O=C(CNS(=O)(=O)c1ccccc1)NCC(=O)OCc1ccc(Cl)cc1,nt,nt,nt,nt,-19%,-5%,-5%,0%
Nc1ccc(-c2ccccc2)cc1,-3%,-3%,1%,-0.5%,18%,nt,nt,-18%
CCOC(=O)Cc1ccc(NS(=O)(=O)c2ccc(SC)cc2)cc1,-7%&-7%,-2%,?,-2.8%,2%,2%,-40%,-2%
COc1cc(OC)c(NC(=O)N2CC3CCCN3c3ccccc32)cc1Cl (stereo not drawn),nt,?,?,-11%,-19%,nt,nt,nt
CC(=O)NS(=O)(=O)c1ccc(NC(=O)C2c3ccccc3Oc3ccccc32)cc1,14%,19%,-17%,-3.1%,-5%,9%,2%,4%
C=CCNC(=O)C(C(=O)OCC)C1CCCCC1 (stereo not drawn),30%[46.1 µM],4%,3%,-4.7%,-2%,7%,17%,-6%
O=C(N/N=C/c1c(Cl)cccc1Cl)c1ccc(F)cc1,27%,-11%,24%,1.9%,70%[activator],4%,-3%,13%
CC1(C)CCc2cc(-c3ccnc(=S)[nH]3)ccc2O1,?,nt,?,nt,31%[activator],0%,3%,21%
O=C(CCCn1cnc2ccccc2c1=O)Nc1ccccc1F,7%[46.1 µM],nt,-10%[46.1 µM],nt,3%,0%,-2%,6%
COc1ccc2c(c1)c1c(c(=O)n(Cc3ccccc3)c(=O)n1Cc1cccc(Cl)c1)n2C,nt,1%,?,-0.3%,-19%,nt,nt,nt
O=C(NN=C1CCCC1)c1ccn[nH]1,?,-11%,?,-0.9%,26%,9%,6%,-9%
CCN(CC)CCN(C(=O)c1ccc2c(c1)OCCO2)c1nc2cc3c(cc2s1)OCO3,?,nt,-5%,nt,-16%,4%,-2%,-2%
Cc1c(Cl)cccc1NC(=O)Cn1nnc(-c2nc(-c3ccccc3)no2)c1N,nt,-6%,15%[46.1 µM],-2.4%,2%,nt,nt,nt
